Bioassay records deposited in PubChem BioAssay by Broad Institute.
UUG fidelity – alters start codon recognition fidelity in yeast; S. cerevisiae UUG-firefly luciferase reporter, luminescence/redox ratio; activity score, % at 18.7 µM; actives 0.13% (n = 350,000); AID 602363;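 active = replicate mean at a twofold rise or more, about +100% in these data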;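 note: firefly luciferase made from a UUG start codon reports start codon fidelity; reporter light over untreated wells divided by growth signal over untreated wells; some hits fall short of that in this replicate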
Env fusion inh – blocks HIV Env-driven cell-cell fusion; HeLa-JRFL Env/CEM21 cell fusion, luciferase; inhibition, % at 12.3 µM; AID 651610; actives 1.1% (n = 360,000);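 active = mean replicate inhibition score of at least 50 and every replicate individually at or above 50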;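 note: 0% = plate neutral controls and 100% = maraviroc near 300 nM; one replicate is shown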
The depositor's hits bear a star; [ ] = another dose, or the depositor's remark. This is a subset. The share of hits here may be higher or lower than overall.

SMILES	UUG fidelity	Env fusion inh
C[C@@H]1CN([C@H](C)CO)C(=O)c2cc(NC(=O)Nc3cccc4ccccc34)ccc2O[C@@H](C)CCCCO[C@@H]1CN(C)C(=O)Cc1ccccc1	-14.4	7.4[16.7 µM]
C[C@@H]1CCCCO[C@@H](CN(C)Cc2ccccc2)[C@H](C)CN([C@H](C)CO)C(=O)c2cc(NC(=O)Nc3ccc(C(F)(F)F)cc3)ccc2O1	5.4	11.7[16.7 µM]
C[C@@H]1CN([C@@H](C)CO)S(=O)(=O)c2ccc(-c3cccc(F)c3)cc2O[C@@H]1CN(C)S(=O)(=O)c1ccccc1	-7.6	92.8*[16.7 µM]
COc1ccc(NC(=O)Nc2cccc3c2O[C@@H](CN(C)Cc2ccc(Cl)c(Cl)c2)[C@H](C)CN([C@@H](C)CO)C3=O)cc1	-4.2	-11.7[16.7 µM]
O=C(C[C@@H]1C[C@@H]2c3cc(NS(=O)(=O)c4ccc(F)cc4)ccc3O[C@@H]2[C@@H](CO)O1)N1CCCCC1	3.6	9.4[16.7 µM]
C[C@H]1CN([C@@H](C)CO)C(=O)c2cc(NS(=O)(=O)c3ccc(Cl)cc3)ccc2O[C@@H]1CN(C)CC1CC1	-12.6	-11.4[16.7 µM]
Cc1cc(C(=O)Nc2ccc3c(c2)C(=O)N(C)[C@H]2CC[C@H](CC(=O)O)O[C@H]2CO3)no1	9.6	11.6[16.7 µM]
CC(C)CC#Cc1cnc2c(c1)C(=O)N([C@H](C)CO)C[C@@H](C)[C@H](CN(C)C(=O)Nc1cccc(F)c1)O2	-0.3	-5.5[16.7 µM]
COc1ccc(NC(=O)N(C)C[C@H]2OCCCC[C@@H](C)Oc3ccc(NC(=O)CCC(F)(F)F)cc3C(=O)N([C@H](C)CO)C[C@@H]2C)cc1	16.3	-13.7[16.7 µM]
C[C@H](CO)N1C[C@H](C)[C@H](CN(C)S(=O)(=O)c2cn(C)cn2)Oc2ncc(C#Cc3ccc(F)cc3)cc2C1=O	1.1	-5.3[16.7 µM]
Cc1ccc(CN(C)C[C@H]2OCc3cnnn3CCCC(=O)N([C@H](C)CO)C[C@@H]2C)cc1	-10.6	-2.5
COc1ccc(NC(=O)N(C)C[C@H]2Oc3ccc(NS(=O)(=O)c4cccs4)cc3CC(=O)N([C@H](C)CO)C[C@H]2C)cc1	-5.2	10.3[16.7 µM]
C[C@H](CO)N1C[C@H](C)[C@H](CN(C)C(=O)Cc2ccncc2)Oc2cc(C#CC3CCCC3)ccc2S1(=O)=O	9.9	-1.0[16.7 µM]
O=S(=O)(N[C@@H]1CC[C@@H](CCn2cc(-c3cccc(F)c3)nn2)O[C@H]1CO)c1ccc(Cl)cc1	1.1	10.6[16.7 µM]
C[C@H]1CN([C@@H](C)CO)S(=O)(=O)c2ccc(C#CC3(O)CCCC3)cc2O[C@@H]1CN(C)C(=O)Nc1ccccc1	-1.9	-14.3[16.7 µM]
COc1ccccc1-c1cnc2c(c1)C(=O)N([C@H](C)CO)C[C@H](C)[C@@H](CN(C)Cc1cncnc1)O2	18.7	-10.3[16.7 µM]
Cc1ccccc1S(=O)(=O)N(C)C[C@H]1OCc2cn(nn2)CCCC(=O)N([C@H](C)CO)C[C@H]1C	1.5	-10.7[16.7 µM]
Cc1ccc(S(=O)(=O)Nc2ccc3c(c2)CC(=O)N([C@@H](C)CO)C[C@H](C)[C@H](CN(C)S(=O)(=O)c2c(C)noc2C)O3)cc1	-12.9	-8.6[16.7 µM]
CN(C)C(=O)C[C@@H]1CC[C@@H]2[C@H](COC[C@@H](O)CN2Cc2ccc(C(F)(F)F)cc2)O1	-6.4	-7.4[16.7 µM]
CCC(=O)N[C@H]1CC[C@H](CCn2cc(C3CC3)nn2)O[C@@H]1CO	-1.0	-10.4[16.7 µM]
CN1CCN(C(=O)C[C@H]2CC[C@@H]3[C@H](COC[C@H](O)CN3CC3CCOCC3)O2)CC1	-11.0	2.0[16.7 µM]
C[C@@H]1CN([C@@H](C)CO)C(=O)c2cc(NC(=O)Nc3ccccc3)ccc2O[C@H]1CN(C)Cc1ccc(C(F)(F)F)cc1	1.1	7.2[16.7 µM]
C[C@H]1CN([C@@H](C)CO)C(=O)c2cc(NC(=O)Nc3ccc(C(F)(F)F)cc3)ccc2O[C@H]1CN(C)Cc1ccccc1	6.4	15.4[16.7 µM]
CC(C)NC(=O)N(C)C[C@H]1Oc2cc(C#CC3CC3)ccc2S(=O)(=O)N([C@@H](C)CO)C[C@H]1C	9.3	-36.2[16.7 µM]
CCCNC(=O)Nc1ccc2c(c1)C(=O)N(C)[C@H]1CC[C@H](CC(=O)NC3CCC3)O[C@H]1CO2	1.3	11.0[16.7 µM]
(more compounds)
SMILES	UUG fidelity	Env fusion inh
C[C@@H]1CN([C@H](C)CO)S(=O)(=O)c2ccc(-c3cncnc3)cc2O[C@@H]1CN(C)C(=O)CN(C)C	4.3	-29.3[16.7 µM]
COc1cccc(NC(=O)N(C)C[C@H]2Oc3ncc(C#Cc4ccccc4)cc3C(=O)N([C@H](C)CO)C[C@@H]2C)c1	4.4	-23.0[16.7 µM]
C[C@@H]1CN([C@@H](C)CO)S(=O)(=O)c2ccc(-c3ccccc3)cc2O[C@H]1CN(C)C(=O)C1CC1	-5.8	-3.4[16.7 µM]
Cc1ccc(-c2cnc3c(c2)C(=O)N([C@H](C)CO)C[C@@H](C)[C@H](CN(C)C)O3)cc1	-14.6	0.2[16.7 µM]
C[C@@H]1CN([C@H](C)CO)C(=O)c2cccc(NS(C)(=O)=O)c2O[C@@H]1CN(C)Cc1ccc(C(F)(F)F)cc1	-4.3	18.9[16.7 µM]
COc1ccc(NC(=O)N(C)C[C@@H]2Oc3c(NS(=O)(=O)c4ccc(Cl)cc4)cccc3C(=O)N([C@@H](C)CO)C[C@H]2C)cc1	-4.5	-27.2[16.7 µM]
COc1ccc(NC(=O)N(C)C[C@@H]2Oc3c(NS(=O)(=O)c4cn(C)cn4)cccc3C(=O)N([C@H](C)CO)C[C@H]2C)cc1	2.6	-2.1[16.7 µM]
C[C@H](O)C#Cc1ccc2c(c1)O[C@@H](CN(C)Cc1ccccc1)[C@H](C)CN([C@H](C)CO)S2(=O)=O	-4.1	-13.5[16.7 µM]
C[C@H]1CCCCO[C@@H](CN(C)S(=O)(=O)c2ccc(F)cc2)[C@@H](C)CN([C@@H](C)CO)C(=O)c2cc(NC(=O)C3CCCCC3)ccc2O1	-5.2	20.2[16.7 µM]
Cc1nn(C)cc1NC(=O)C[C@H]1CC[C@@H]2[C@H](COc3ccc(NC(=O)C4CCC4)cc3C(=O)N2C)O1	41.2	-4.1[16.7 µM]
C=CCNC(=O)[C@H]1[C@@H]2C(=O)O[C@@H](c3ccccc3)[C@@H](c3ccccc3)N2[C@@H](c2ccccc2OCCO)[C@]12C(=O)Nc1ccc(C#CC3(O)CCCCCC3)cc12	-6.3	-59.7[16.7 µM]
Cc1ccc(S(=O)(=O)N[C@@H]2CC[C@H](CCn3cc(C4CCCC4)nn3)O[C@H]2CO)cc1	17.1	6.1[16.7 µM]
COc1ccc(NC(=O)Nc2ccc3c(c2)CC(=O)N([C@H](C)CO)C[C@H](C)[C@H](CN(C)S(=O)(=O)c2ccc(OC)cc2)O3)cc1	-4.1	42.7[16.7 µM]
C[C@@H]1CN([C@H](C)CO)S(=O)(=O)c2ccc(C3=CCCC3)cc2O[C@@H]1CN(C)C(=O)c1cccnc1	-6.2	-18.1[16.7 µM]
Cc1noc(C)c1NC(=O)N[C@@H]1CC[C@H](CC(=O)Nc2ccccc2)O[C@H]1CO	-9.2	6.9[16.7 µM]
C[C@H](CO)N1C[C@H](C)[C@@H](CN(C)C(=O)C2CC2)Oc2cc(-c3cncnc3)ccc2S1(=O)=O	2.7	-13.5[16.7 µM]
Cc1cc(C(=O)Nc2cccc3c2O[C@H](CN(C)C(=O)NC2CCCCC2)[C@H](C)CN([C@@H](C)CO)C3=O)n(C)n1	-6.2	0.2[16.7 µM]
CC(C)CC#Cc1ccc2c(c1)O[C@H](CN(C)CC1CC1)[C@H](C)CN([C@H](C)CO)S2(=O)=O	-13.8	-6.5[16.7 µM]
C[C@@H]1CN([C@H](C)CO)C(=O)c2cc(NS(=O)(=O)c3ccccc3)ccc2O[C@@H](C)CCCCO[C@H]1CN(C)S(=O)(=O)c1ccccc1	-3.9	-54.3[16.7 µM]
C[C@@H]1CCCCO[C@H](CN(C)Cc2ccc(C(=O)O)cc2)[C@H](C)CN([C@H](C)CO)C(=O)c2cc(NC(=O)c3ccncc3)ccc2O1	-7.8	6.1[16.7 µM]
COc1ccc(NC(=O)Nc2ccc3c(c2)C(=O)N([C@H](C)CO)C[C@H](C)[C@H](CN(C)C(=O)Nc2ccc4c(c2)OCO4)OCCCC[C@H](C)O3)cc1	2.2	-1.9[16.7 µM]
CCCN(C)C[C@@H]1Oc2cc(-c3cccnc3)ccc2S(=O)(=O)N([C@H](C)CO)C[C@@H]1C	-6.2	-51.2[16.7 µM]
COc1ccc(S(=O)(=O)Nc2ccc3c(c2)C(=O)N([C@H](C)CO)C[C@H](C)[C@@H](CN(C)C(=O)c2ccncc2)OCCCC[C@H](C)O3)cc1	-4.4	-1.6[16.7 µM]
N#C[C@@H]1[C@@H](c2ccc(C#Cc3ccccc3F)cc2)[C@H](CO)N1C(=O)C1CC1	-0.4	-17.0[16.7 µM]
C[C@H]1CN([C@@H](C)CO)C(=O)c2cc(NC(=O)Nc3ccccc3)ccc2O[C@@H]1CN(C)Cc1ccc(C(F)(F)F)cc1	-6.3	-18.0[16.7 µM]
Further entries follow:
SMILES	UUG fidelity	Env fusion inh
CCC(=O)N[C@H]1CC[C@H](CCNC(=O)Nc2ccc(F)cc2)O[C@@H]1CO	-8.2	-17.1[16.7 µM]
Cc1noc(C)c1NC(=O)Nc1ccc2c(c1)CC(=O)N([C@H](C)CO)C[C@@H](C)[C@@H](CN(C)Cc1ccc(C(F)(F)F)cc1)O2	-2.5	3.3[16.7 µM]
C[C@@H]1CCCCO[C@H](CN(C)S(=O)(=O)c2ccccc2)[C@H](C)CN([C@@H](C)CO)C(=O)c2cc(NC(=O)CCCN(C)C)ccc2O1	2.4	-48.9[16.7 µM]
CCCNC(=O)N[C@@H]1C=C[C@H](CC(=O)N2CCN(C)CC2)O[C@@H]1CO	-25.1	-7.3[16.7 µM]
CN(C)CC(=O)N[C@H]1CC[C@H](CCNC(=O)Nc2ccc(F)cc2)O[C@@H]1CO	5.2	9.5[16.7 µM]
C[C@H](CO)N1C[C@H](C)[C@@H](CN(C)S(=O)(=O)c2cccs2)Oc2ccc(NS(=O)(=O)c3ccc(Cl)cc3)cc2CC1=O	-14.5	-0.5[16.7 µM]
O=C(C[C@H]1C[C@@H]2c3cc(NS(=O)(=O)c4ccc(F)cc4)ccc3O[C@@H]2[C@H](CO)O1)N1CCOCC1	-12.0	21.5[16.7 µM]
Cc1noc(C)c1S(=O)(=O)Nc1cccc2c1O[C@H](CN(C)S(=O)(=O)c1ccccc1)[C@H](C)CN([C@@H](C)CO)C2=O	-11.1	33.7[16.7 µM]
COc1ccc(NC(=O)N(C)C[C@@H]2Oc3ccc(NC(=O)Cc4ccccc4)cc3CC(=O)N([C@H](C)CO)C[C@@H]2C)cc1	11.6	40.2[16.7 µM]
C[C@@H]1CN([C@H](C)CO)S(=O)(=O)c2ccc(-c3cccc(C#N)c3)cc2O[C@H]1CN(C)C	21.1	7.8[16.7 µM]
COc1ccccc1C#Cc1ccc([C@H]2[C@@H](C#N)N(C(=O)C3CCC3)[C@@H]2CO)cc1	22.9	-13.1[16.7 µM]
CC(=O)N(C)C[C@@H]1Oc2cc(-c3ccncc3)ccc2S(=O)(=O)N([C@H](C)CO)C[C@H]1C	-5.5	-3.0[16.7 µM]
C[C@@H]1CN([C@H](C)CO)C(=O)Cc2cc(NC(=O)C3CCCCC3)ccc2O[C@@H]1CN(C)S(=O)(=O)c1cn(C)cn1	-12.4	17.8[16.7 µM]
Cc1ccc(S(=O)(=O)N(C)C[C@H]2Oc3ccc(NS(=O)(=O)c4ccccc4)cc3C(=O)N([C@H](C)CO)C[C@@H]2C)cc1	9.3	8.3[16.7 µM]
Cc1cccc(NC(=O)Nc2ccc3c(c2)C(=O)N(C)[C@@H]2CC[C@H](CC(=O)O)O[C@H]2CO3)c1	-3.9	8.2[16.7 µM]
O=C(C[C@@H]1C[C@H]2c3cc(NS(=O)(=O)c4ccc(F)cc4)ccc3O[C@H]2[C@H](CO)O1)N1CCCCC1	6.8	18.8[16.7 µM]
C[C@@H]1CCCCO[C@H](CN(C)S(=O)(=O)c2ccccc2)[C@@H](C)CN([C@@H](C)CO)C(=O)c2cc(NC(=O)NC3CCCCC3)ccc2O1	2.3	-22.5[16.7 µM]
CO[C@@H]1CN(C)C(=O)c2cc(NC(=O)c3ccc(F)cc3)ccc2OC[C@@H](C)N(C)C[C@@H]1C	-3.8	23.4[16.7 µM]
CC(=O)N(C)C[C@@H]1Oc2cc(-c3ccc(F)cc3)ccc2S(=O)(=O)N([C@H](C)CO)C[C@H]1C	3.0	3.4[16.7 µM]

Laid out differently: 5 of the compounds above.
UUG fidelity | Env fusion inh | molecule
21.1 | 7.8[16.7 µM] | C[C@@H]1CN([C@H](C)CO)S(=O)(=O)c2ccc(-c3cccc(C#N)c3)cc2O[C@H]1CN(C)C
22.9 | -13.1[16.7 µM] | COc1ccccc1C#Cc1ccc([C@H]2[C@@H](C#N)N(C(=O)C3CCC3)[C@@H]2CO)cc1
-5.5 | -3.0[16.7 µM] | CC(=O)N(C)C[C@@H]1Oc2cc(-c3ccncc3)ccc2S(=O)(=O)N([C@H](C)CO)C[C@H]1C
-12.4 | 17.8[16.7 µM] | C[C@@H]1CN([C@H](C)CO)C(=O)Cc2cc(NC(=O)C3CCCCC3)ccc2O[C@@H]1CN(C)S(=O)(=O)c1cn(C)cn1
9.3 | 8.3[16.7 µM] | Cc1ccc(S(=O)(=O)N(C)C[C@H]2Oc3ccc(NS(=O)(=O)c4ccccc4)cc3C(=O)N([C@H](C)CO)C[C@@H]2C)cc1
